AmpC nodet inh: AmpC beta-lactamase inhibition, detergent-free assay; P00811; AmpC nitrocefin hydrolysis, absorbance 480 nm, no detergent; potencies from a single point are estimates; AID 585; Potency, µM (series often up to 28.7 µM), for the others: at the top dose activity change, negative = inhibition; 1.8% of 71,000 active; active = falling curve, for most hits resting on a single point; inconclusive = weak or doubtful change; inactive = flat or rising curve; also: % of control where 0% means no effect; about half of the hits show no inhibition at the top dose; a quarter of the inactives give rising signals
Target sequence (P00811 whole entry, looked up): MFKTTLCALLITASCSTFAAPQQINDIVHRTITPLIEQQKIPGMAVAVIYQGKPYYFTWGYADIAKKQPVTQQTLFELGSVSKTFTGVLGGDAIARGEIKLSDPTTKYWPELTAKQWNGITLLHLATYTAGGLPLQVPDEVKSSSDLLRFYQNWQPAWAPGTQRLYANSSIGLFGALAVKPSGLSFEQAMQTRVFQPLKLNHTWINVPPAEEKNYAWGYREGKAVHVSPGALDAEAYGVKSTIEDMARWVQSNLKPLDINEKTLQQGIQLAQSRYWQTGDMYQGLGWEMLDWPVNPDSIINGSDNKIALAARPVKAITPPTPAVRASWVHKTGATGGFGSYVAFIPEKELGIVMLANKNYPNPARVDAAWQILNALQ
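AmpC, 20 mM phosphate pH 7.0; 15 min cpd preinc, RT; start with nitrocefin (800 uM stock); A480 kinetic read, 20 s intervals, 4 min. No-enzyme wells = negative control.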
An asterisk follows results filed as active; u = inconclusive; & = joins results of further samples; [ ] = remark or other dose. Potency is read from the fitted curve at half-maximal effect.

SMILES	AmpC nodet inh
O=c1cc(-c2ccccc2)[nH]n1-c1nc2ccccc2s1	-22%
CCOc1ccccc1N1CCN(C(=O)c2ccncc2)CC1	26%
O=c1c2ccccc2sc2c(CO)ccc(NCCN3CCCCC3)c12	-4%[5.75 µM]
O=C(c1ccc(CS(=O)(=O)c2cccc(C(F)(F)F)c2)o1)N1CCN(c2ccccn2)CC1	80%
Cc1cnc(CNc2ncncc2-c2cccc(NS(C)(=O)=O)c2)cn1	4%
COc1ccccc1NC(=O)N(Cc1ccco1)Cc1cc2ccc(C)c(C)c2[nH]c1=O	26%
COc1ccc(C(C(=O)OCCN(C)C)c2ccccc2)cc1 (stereo not drawn)	14%
COc1ccc(N)cc1	-8%&-20%
CC1=C(C(=O)OCc2ccccc2)C(c2ccoc2)C(C#N)=C(N)O1 (stereo not drawn)	-5%
Cc1cc(C)nc(SCc2nnc(SCC(=O)N3CCOCC3)o2)n1	10%
O=C(Oc1ccc(OC(=O)N2CCOCC2)cc1)c1ccccc1	21%
Cc1cccnc1N(C(=O)Nc1ccccc1)C1=NCC(C)(C)S1	-1%
CNc1nc(-c2ccccc2Cl)nc2ccccc12	-8%
COc1cc(C#CC#CCN2CCCCC2)ccc1O	-4%
CCS(=O)(=O)N1CCC(C(=O)NCCCN2CCCCCC2)CC1	-4%

Taken from above.
Under AmpC nodet inh, `CCOc1ccccc1N1CCN(C(=O)c2ccncc2)CC1` is entered as 26%
Under AmpC nodet inh, `CNc1nc(-c2ccccc2Cl)nc2ccccc12` is entered as -8%
Under AmpC nodet inh, `O=c1cc(-c2ccccc2)[nH]n1-c1nc2ccccc2s1` is entered as -22%
Under AmpC nodet inh, `Cc1cccnc1N(C(=O)Nc1ccccc1)C1=NCC(C)(C)S1` is entered as -1%

Other compounds follow:
SMILES	AmpC nodet inh
Cn1c(CC(=O)Nc2ccccc2)nnc1SCCOc1ccccc1	16%
CCOC(=O)C1CCCN(Cc2ccccc2OCC)C1 (stereo not drawn)	12%
Cn1c(=O)c2c(SCc3ccccn3)nc(C3CC3)nc2n(C)c1=O	10%
CN(C)c1ccc(-c2ccccc2)nn1	-4%
Clc1ccc(-c2nn3c(Cn4cnc5ccccc54)nnc3s2)c(Cl)c1	55%
CC(C)(C)C1CCc2c(sc(NC(=O)c3cc(C4CC4)on3)c2C#N)C1 (stereo not drawn)	-8%
CCN(CC)CCCN=Cc1c(O)n(-c2cccc(C)c2C)c(=O)[nH]c1=O	-6%
COc1ccccc1NC(=O)C(C)Sc1nnnn1C (stereo not drawn)	-6%
O=C(O)c1nn(Cc2ccc(Cl)cc2Cl)c2ccccc12	4%&-13%
CCCNC(=O)c1c(N)n(-c2ccc3c(c2)OCO3)c2nc3ccccc3nc12	-8%
CCc1ccc(S(=O)(=O)NC(CC(=O)O)c2ccccc2)cc1 (stereo not drawn)	-8%
CCOC(=O)C1CCN(C(=O)CN(c2cccc(OC)c2)S(=O)(=O)c2ccccc2)CC1	87%
C/C(=C\COc1cc(=O)[nH]c2ccccc12)CC[C@@H](O)C(C)(C)O	24%
C/C(Cl)=C/CSc1nc2c(c(=O)[nH]c(=O)n2C)n1C(C)C	17%
O=C(O)C(CCCCN1C(=O)C2C3C=CC(C3)C2C1=O)N1C(=O)C2C3C=CC(C3)C2C1=O (stereo not drawn)	-5%
O=C(C1Cc2ccccc2CN1S(=O)(=O)c1cccs1)N1CCCCC1 (stereo not drawn)	10%
O=C1COc2ccc(C(=O)CSc3nnc(-c4cccs4)n3Cc3ccccc3)cc2N1	13%
COc1cc2c(C#N)c(N3CCc4ccccc4C3)nc(N)c2c(N)n1	45%
Cn1c(SCCOc2cccc(Cl)c2)nnc1-c1ccncc1	39%
C[N+]1(CCCCC[N+]2(C)CCCC2)CCCC1	-5%[12.8 µM]
Cc1onc(-c2c(Cl)cccc2Cl)c1C(=O)Nc1c(C)n(C)n(-c2ccccc2)c1=O	8%
CC1=Nn2c(nnc2-c2ccccc2Cl)SC1	-12%
COc1ccc(-c2nc3cnc(N(C)C)nc3n(Cc3ccc(F)cc3)c2=O)cc1	-3%
O=C(CN1CCOc2ccccc21)NCc1ccccc1	12%
Cc1cc2ncn(CCOc3ccccc3C#N)c2cc1C	90%
COc1cccc(C(=O)N(CN2CCCC2=O)c2cccc(Cl)c2)c1	41%
O=C1CCc2cc(S(=O)(=O)NC(Cc3ccccc3)C(=O)NC3CCCC3)ccc2N1 (stereo not drawn)	4µM*[single pt active]
CC(C)CC(NC(=O)C1CCC(C)CC1)C(=O)Nc1ccccn1 (stereo not drawn)	-7%
CN(C)c1ccc(CN2CCCCCC2)cc1	2%
COc1ccc(-c2nnn(CCc3nn[nH]n3)n2)cc1OC	-2%

Another view of part of the listing above.
> CCS(=O)(=O)N1CCC(C(=O)NCCCN2CCCCCC2)CC1
  AmpC nodet inh: -4%

> Cn1c(CC(=O)Nc2ccccc2)nnc1SCCOc1ccccc1
  AmpC nodet inh: 16%

> CCOC(=O)C1CCCN(Cc2ccccc2OCC)C1 (stereo not drawn)
  AmpC nodet inh: 12%

> Cn1c(=O)c2c(SCc3ccccn3)nc(C3CC3)nc2n(C)c1=O
  AmpC nodet inh: 10%

Carrying on:
SMILES	AmpC nodet inh
CC1(C)Cc2ccccc2-c2nnc(SCC(=O)Nc3nc4ccccc4s3)n21	24%
COc1ccc(CCNC(=O)CSc2nnc(-c3ccc(F)cc3)o2)cc1OC	5%
COC(=O)CSc1nc(N)c(C#N)c(C(C)C)c1C#N	1%
CCCn1c(-c2ccc(F)cc2)nc2c(NCCN3CCCC3)nc(C)nc21	23%
O=C(CCC1CCCC1)N1CCN(C(=O)COc2ccccc2)CC1	63%
Cn1c(C(=O)N2CCN(c3ccccn3)CC2)cc2c(=O)n(C)c3ccccc3c21	4µM*[single pt active]
COc1ccc(N2C3=[N+](CC2(C)O)c2ccccc2CC3)cc1 (stereo not drawn)	-10%
CC1(C)CC(=O)C=C(Nc2ccccn2)C1	-8%
Cc1ccc(Cn2nnc3c(=O)n(CC(=O)c4ccccc4)cnc32)cc1	1%
COc1ccc(C2CC(C(F)(F)F)n3nc(C(N)=O)c(Cl)c3N2)cc1OC (stereo not drawn)	16%
C[N+]1=C2CCCCCN2C(O)(c2ccccc2)C1 (stereo not drawn)	-11%
CCOC(=O)C(C(=O)Nc1cccc(C)n1)C1CCCCC1 (stereo not drawn)	12%
Cc1c(F)cccc1NS(=O)(=O)c1ccccc1C#N	2%
COc1ccc(NC(=O)c2c(OC)cccc2OC)c(OC)c1	15%
CCCCC#Cc1nc(NC)c2ncn([C@@H]3O[C@@H](CO)[C@H](O)[C@H]3O)c2n1	33%
O=C(O)c1cc2c(s1)-c1ccccc1OC2	-12%
CS(=O)(=O)Nc1cccc(-c2cncnc2NCc2cccnc2)c1	13%
Cc1cc(=S)[nH]c2ccccc12	8%
Cc1ccc2c(CC(=O)N3CCN(S(=O)(=O)c4ccc5c(c4)OCCO5)CC3)coc2c1	30%
Cc1cccc(NC(=O)N2CCC(NC(=O)c3ccccc3C)CC2)c1	2%
CCC(=O)N1CCCc2cc(S(=O)(=O)N3CCN(C4CCCCC4)CC3)ccc21	u
Oc1cc(Cc2ccccc2)cnc1CN1CCCCC1	-16%
COc1cccc(CN(C)C(=O)c2ccc(S(=O)(=O)N3CCCC3)cc2)c1OC	68%
c1ccc(-c2ncnc3nc4n(c23)CCC4)cc1	-2%
CN(C)S(=O)(=O)c1cccc(C(=O)OCC(=O)Nc2sccc2C(N)=O)c1	3%
O=C(Oc1cccc(Br)c1)c1cccnc1	-4%
Cc1nc2cc(Cl)c(Cl)cc2nc1C	-1%
O=c1c(F)cn(C2CCCO2)c(=O)n1Cc1c(F)cccc1Cl (stereo not drawn)	-1%
CCn1c(=O)c(C2=NS(=O)(=O)c3ccccc3N2)c(O)c2ccccc21	-21%
Cc1ccc2c(c1)c1ncnc(N3CCOCC3)c1n2C	42%

Reformatted with each value named: 4 of the compounds above
> CCC(=O)N1CCCc2cc(S(=O)(=O)N3CCN(C4CCCCC4)CC3)ccc21
  AmpC nodet inh: u

> Oc1cc(Cc2ccccc2)cnc1CN1CCCCC1
  AmpC nodet inh: -16%

> COc1cccc(CN(C)C(=O)c2ccc(S(=O)(=O)N3CCCC3)cc2)c1OC
  AmpC nodet inh: 68%

> c1ccc(-c2ncnc3nc4n(c23)CCC4)cc1
  AmpC nodet inh: -2%

Given as a markdown table: three of the compounds above
| Structure | AmpC nodet inh |
| --- | --- |
| Oc1cc(Cc2ccccc2)cnc1CN1CCCCC1 | -16% |
| Cc1cccc(NC(=O)N2CCC(NC(=O)c3ccccc3C)CC2)c1 | 2% |
| c1ccc(-c2ncnc3nc4n(c23)CCC4)cc1 | -2% |

Next results.
SMILES	AmpC nodet inh
CCOC(=O)CSc1nnnn1-c1cc(OC)ccc1OC	1%
CCOC(=O)N1CCN(C(=O)COc2ccc3c(c2)C(=O)CC2(CCN(C(C)=O)CC2)O3)CC1	24%
O=C(Nc1ccc(Cl)cc1C(=O)NCC1CCCO1)c1ccco1 (stereo not drawn)	10%
CCCn1nnc(NC(=O)c2cccc(OCC(C)C)c2)n1	4%
Cc1cc(C)c2nc(N3CCCN(C(=O)c4cnccn4)CC3)c(C#N)cc2c1	108%
Cc1onc(-c2ccccc2Cl)c1C(=O)N1CCCc2ccccc21	31%
Cc1oc(C(C)(C)C)cc1C(=O)NCC(=O)NCC(=O)O	-2%
CC1CN(C(=O)c2cc3c(=O)n4ccccc4nc3s2)CC(C)O1 (stereo not drawn)	11%
O=C(CSc1nc2ccccc2s1)NC(=O)NCc1ccco1	-23%
COC(=O)c1ccc2nc(NC(=O)CN3C(=O)CCC3=O)sc2c1	-2%
c1ccc2sc(SCN(C3CCCCC3)C3CCCCC3)nc2c1	-12%[5.75 µM]
O=C(COc1cccc2ccccc12)N1CCN(c2ccccn2)CC1	57%
O=C(O)CSc1nnc(-c2ccccc2O)n1Cc1ccccc1	2%
O=C(CC1(O)C(=O)Nc2ccccc21)c1ccccc1 (stereo not drawn)	4%
O=C(Nc1ccccc1-c1ccccc1)c1cnccn1	13%
Cc1cccc(-n2ccnc2SCC(=O)Nc2nccs2)c1	-11%
O=C(c1ccco1)N1CCN=C1SCc1ccccc1F	9%
CC(C)(C)NCCCCOc1ccc(F)cc1	-10%
Cn1c(O)c(C=NCCCN2CCCC2=O)c(=O)n(C)c1=O	5%
COc1ccc(OC)c(NC(=O)Cn2cc(C#N)c3ccccc32)c1	-3%
Cc1noc(C)c1S(=O)(=O)Nc1ccc(C(=O)NC2CCCCC2C)cc1 (stereo not drawn)	-6%
Cc1cc(C)n(/N=C/c2c[nH]c3ccccc23)c(=O)c1	9%
COc1cc(C2C(C(C)=O)=C(O)C(=O)N2CCc2c[nH]c3ccccc23)ccc1O (stereo not drawn)	-7%
CCCS(=O)(=O)N1CCCC(C(=O)NCc2ccc(C)cc2)C1 (stereo not drawn)	0%
COc1cccc(NC(=O)CSc2nnnn2C(C)C)c1	5%
COc1ccccc1C1C2C(=O)N(c3ccccc3)C(=O)C2ON1c1ccccc1 (stereo not drawn)	13%
C=CCn1c(SCC(=O)NC2CCCCC2)nnc1-c1ccc(OC)cc1	45%
Fc1ccc(CSc2nncn2NCc2ccc3c(c2)OCO3)cc1	30%
CCN(CC)CCCN(Cc1cc2cc3c(cc2[nH]c1=O)OCO3)C(=O)Nc1ccccc1OC	31%
CC(C)N(CCc1ccncc1)C(=O)Nc1ccc(F)cc1	9%
Cc1ccc(S(=O)(=O)N2CCN(C(=O)N3CCOCC3)C2C)cc1 (stereo not drawn)	1%
CN1CCN(c2ncc3nc(-c4cccs4)c(=O)n(CCc4ccccc4)c3n2)CC1	107%
O=c1[nH]c2cc3c(cc2cc1CN(Cc1nnnn1CC1CCCO1)C1CCCCC1)OCO3 (stereo not drawn)	50%
O=S(=O)(c1ccccc1)N1CCC2(CCN(Cc3ccccc3)CC2)CC1	28%
COc1cccc(-c2nnc(SCc3ccc(C#N)cc3)n2Cc2ccco2)c1	28%
O=C(Nc1nc2c(s1)CCCC2)c1ccc2ncsc2c1	78%
COc1ccc(/C=N/n2cc(-c3ccc(OC)cc3)nc2N)cc1	-3%
CC1(C)CC2(CC(C)(C)NC(=O)N2)NC(=O)N1	-2%
Clc1cc(Cl)c(Cl)cc1Cl	0%
O=C1C2=C(Nc3cc([N+](=O)[O-])ccc3N2)O[C@@H]1c1c[nH]c2ccc(COc3ccccc3)cc12	5%[5.75 µM]
CCC1SC2=NC(C)=C(C(=O)OC)C(c3ccc(C)cc3)N2C1=O (stereo not drawn)	44%
Cn1c(=O)c2c(-c3ccccc3)n3c4ccccc4ncc3c2n(C)c1=O	35%
N#Cc1c(NC(=O)CCn2cnc3ccccc3c2=O)oc(-c2ccccc2)c1-c1ccccc1	-6%
Cc1oc2ccc(OC(=O)N3CCOCC3)cc2c1C(=O)OC(C)C	79%
COC(=O)CC1C(=O)NCCN1C(=O)CSc1nnc(Nc2ccc(OC)cc2)s1 (stereo not drawn)	8%
O=C(Nc1ccc(S(=O)(=O)NCc2ccccc2)cc1)Nc1ccc2c(c1)OCO2	10µM*
Oc1c(C(c2ccco2)N2CCOCC2)sc2ncnn12 (stereo not drawn)	-6%
CCC(Oc1ccccc1)C(=O)Nc1nnc(C)s1 (stereo not drawn)	-3%
CCOC(=O)C(NC(C)=O)C(OC(C)=O)c1cccc(N(CCO)CCO)c1 (stereo not drawn)	-12%
CC(C)(C)c1cc(=O)n2c(C#N)c(C#N)nc2[nH]1	-11%
CC(C)OC(=O)CSc1nnc(-c2cnccn2)n1C	-2%
O=C(CSc1ncccn1)NC(=O)NCc1ccccc1	-8%
CN1CCN(C(=S)c2ccc(N(C)C)cc2)CC1	-4%

Source: PubChem BioAssay (National Center for Advancing Translational Sciences (NCATS))

Not all compounds are listed; count on the stated rates, not on these rows.
